# High-throughput results as filed in PubChem.
# GALR2 agonist: agonists of human galanin receptor 2 (GALR2); activation, %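 (tested at 5 µM)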; AID 803; O43603; 140,000 tested, 0.48% active; GALR2-expressing cells, agonist activation read-out;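 active = above mean plus 3 SD of all compounds, about 5% in these data, not always enough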;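 note: 0% = vehicle buffer wells and 100% = reference agonist at full effect; tested in CHO reporter cells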
# Target sequence (O43603 whole entry, looked up): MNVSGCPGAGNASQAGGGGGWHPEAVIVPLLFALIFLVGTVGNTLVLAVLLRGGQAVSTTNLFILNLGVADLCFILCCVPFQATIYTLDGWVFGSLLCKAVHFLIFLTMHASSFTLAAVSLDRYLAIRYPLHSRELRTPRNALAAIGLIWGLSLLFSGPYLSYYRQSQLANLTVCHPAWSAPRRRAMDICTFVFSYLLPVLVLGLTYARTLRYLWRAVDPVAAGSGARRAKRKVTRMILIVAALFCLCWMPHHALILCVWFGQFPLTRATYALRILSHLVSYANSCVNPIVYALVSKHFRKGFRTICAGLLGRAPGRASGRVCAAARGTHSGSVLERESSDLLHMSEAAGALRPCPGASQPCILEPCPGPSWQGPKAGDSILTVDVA
# PKD1 inh: blocks activity of human protein kinase D1 | Q15139 | AID 797 | PKD1 kinase fluorescence polarization assay | 200,000 tested, 0.056% active | inhibition, %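 (about 10 µM by stock and volumes)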;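 active = inhibition of 50% or more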;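 note: controls were vehicle for no effect and a reference inhibitor for full effect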
# Insulin prom inh: TRM-6 insulin promoter activity inhibition; TRM-6 cells (human fetal islet line), insulin promoter-eGFP reporter, imaging; reporter expression induced with tamoxifen; inhibition, % at 2 µM; 130,000 tested, 0.9% active; AID 1273;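 active = inhibition above the mean plus 3 SD, with well images judged a real hit on visual review, cut at about 60% in these data, passing the limit was not always enough; inconclusive = inhibition over the cutoff but images rejected on review; inactive = inhibition not above the cutoff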
# HSV replic up: increases HSV replication in cells | HSV replication augmentation in cells, fold increase | maximum fold increase | 220,000 tested, 0.005% active | AID 1956;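 active = peak rise of 1.5-fold or more in the series; inconclusive = self-fluorescent or not available for retest; tested in PC3 cells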;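 note: first round at 10 µM; read as green reporter fluorescence; hits show the peak of a series up to 25 µM; 1 = signal of infected wells without compound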
# RGS16-Gao HTS: RGS16-Galphao interaction regulator (human) | O15492+P09471 | bead-based flow cytometry RGS16-Galphao binding, fluorescence; actives lie on both sides | binding response (% of control), % at 10 µM | 220,000 tested, 0.38% active | AID 1441;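 active = below 25% or above 175%, edge rows of some plates excepted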;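 note: Galphao activated by GDP with aluminum fluoride before binding; 100% = wells without compound and 0% = beads without RGS; some results beyond the cut were filed as inactive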
# Target sequence (O15492 whole entry, looked up): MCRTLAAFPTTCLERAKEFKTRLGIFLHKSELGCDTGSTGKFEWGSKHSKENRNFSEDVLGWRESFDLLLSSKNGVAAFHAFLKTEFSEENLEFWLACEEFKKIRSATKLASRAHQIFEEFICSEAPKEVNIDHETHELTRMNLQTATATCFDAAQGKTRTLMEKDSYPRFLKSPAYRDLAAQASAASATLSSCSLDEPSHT
# Target sequence (P09471 whole entry, looked up): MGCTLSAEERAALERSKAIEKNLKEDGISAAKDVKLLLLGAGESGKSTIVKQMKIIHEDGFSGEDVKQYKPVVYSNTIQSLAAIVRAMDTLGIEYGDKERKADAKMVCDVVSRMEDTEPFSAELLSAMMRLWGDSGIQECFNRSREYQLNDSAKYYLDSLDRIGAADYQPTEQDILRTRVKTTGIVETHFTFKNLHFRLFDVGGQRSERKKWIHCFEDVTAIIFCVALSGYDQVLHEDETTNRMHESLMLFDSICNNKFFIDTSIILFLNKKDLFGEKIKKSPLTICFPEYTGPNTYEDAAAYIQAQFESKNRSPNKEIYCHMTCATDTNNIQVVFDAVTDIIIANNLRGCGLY
# Insulin prom inh cell count: second read-out of Insulin prom inh, no call of its own (marks repeat the call); normalized cell count, %; measured here: cell count, toxicity; reference of the scale not given here;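 cells exposed to compound for 48 h; stained nuclei by imaging scaled within each plate; lower means fewer cells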
# HSV replic up primary fold: recorded beside HSV replic up, whose call it bears; fold increase; compound at 10 µM; measured here: primary screen fold increase 10 uM; tested in PC3 cells;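 GFP signal in the first replicate; 1 = infected wells without compound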
# An asterisk follows results filed as active; i = inactive; ? = inconclusive; . = no result given.
canonical_smiles,Insulin prom inh,GALR2 agonist,HSV replic up,HSV replic up primary fold,PKD1 inh,RGS16-Gao HTS,Insulin prom inh cell count
Cc1csc(NC(=O)CCSCCc2ccccn2)n1,.,-1.3,i,1.01,8.5,126.0,.
CC(/C=N/NC(=O)c1c(Br)cnn1C)=C\c1ccccc1,8.6,0.6,i,0.91,-5.4,95.4,120.9
CCC(CC(C)(C)O)C(=O)NNC(=S)Nc1ccccc1 (stereo not given),.,.,i,0.75,-5.2,103.1,.
CCOC(=O)c1c(C)oc(NC(=O)CCl)c1C(=O)OCC,-14.3,.,i,1.05,-0.8,88.4,92.3
O=C(Cn1nc(Cl)nc1Cl)c1cc2ccccc2oc1=O,.,-1.7,i,0.93,-6.1,96.1,.
O=C(c1cnn2cccnc12)N1CCN(c2ccccc2)CC1,-4.5,-2.1,i,0.8,1.0,110.4,80.9
Cc1cccc(N2CCN(CC(O)COc3ccccc3Cl)CC2)c1 (stereo not given),.,.,i,0.92,.,95.5,.
CCO/C([O-])=N/c1c[n+](N2CCOCC2)no1,39.1,-1.4,i,0.93,0.6,.,117.5
Cc1ccc(-n2c(=O)cc(N3CC(C)CC(C)C3)[nH]c2=O)cc1 (stereo not given),72.7*,0.1,i,0.9,-14.7,110.9,88.7*
COCCn1c(SCc2nc3ccccc3s2)nc2ccccc21,-9.1,-2.9,i,0.89,-8.2,95.5,96.4
CC1(C)Cc2c(C#N)c(OCC(=O)c3ccc(Cl)cc3)nc(-c3ccoc3)c2CO1,-9.1,-2.4,i,1.13,-4.3,97.0,121.7
Cc1ccc(C)c(NC2=NCC(=O)N2c2ccc3c(c2)OCCO3)c1,57.1,-1.6,i,0.82,4.3,78.4,103.4
COc1ccc(Cc2nnc(SCC(=O)N3CCN(c4ccccc4)CC3)o2)cc1,46.1,-2.7,i,0.99,15.6,101.0,116.4
Cc1ccc(NC(=O)c2ccc(N/N=C/c3cccc(O)c3)c([N+](=O)[O-])c2)cc1,25.0,-1.6,i,0.55,5.1,76.4,80.4
Cc1cc(C)cc(-c2nnc(SCC(=O)c3ccc4c(c3)OCCO4)o2)c1,66.7,-2.5,i,0.95,-10.6,95.0,148.8
CCn1c(SCC(=O)N/N=C(\C)c2ccco2)nnc1-c1ccccc1,.,.,i,0.83,-8.8,97.5,.
COc1ccc(Cl)cc1NC(=O)C1(c2cccs2)CCOCC1,.,.,i,0.91,3.9,103.4,.
CCC(C(=O)NC(C)(C)C)N(C(=O)Cn1nnc(-c2cccs2)n1)c1cnc2ccccc2c1 (stereo not given),2.7,-0.9,i,0.94,-0.3,102.8,73.4
CC1CN(Cc2nc3c(c(=O)[nH]c(=O)n3C)n2CC(N)=O)CC(C)O1 (stereo not given),.,-0.6,i,0.82,-12.5,102.3,.
CN(C=[N+](C)C)c1cccc2c1C(=O)c1ccccc1C2=O,.,-0.8,?,.,10.3,98.7,.
CC(=O)NNC(=O)c1sc(=S)n2c1[nH]c(=O)c1sccc12,.,.,i,1.12,-8.5,94.4,.
CCNC(=O)c1c(O)c2c([nH]c1=O)CCCC2,.,.,i,1,.,106.4,.
COc1ccc(C/C(C)=N/NC(=S)Nc2ccccc2F)cc1,.,.,i,1.01,0.9,104.4,.
O=S(=O)(c1ccccc1)c1cnc(-c2cccnc2)nc1-c1ccc(Cl)c(Cl)c1,45.5,-1.4,i,0.86,-3.3,106.0,121.7
CCC(=O)OCC(=O)Nc1ccc2c(c1)OCO2,.,.,i,0.95,1.6,98.8,.
COc1ccc(CNn2c(-c3cccc(C)c3)nc3ccccc3c2=O)cc1OC,0.0,-1.2,i,0.93,-3.6,138.8,87.9
O=C(C(=O)N1CCCc2ccccc21)c1cn(CC(=O)N2CCOCC2)c2ccccc12,-53.9,.,.,.,-6.3,102.2,100.4
Cc1nn(-c2ccccc2)c(Cl)c1C(=O)N1CCN(c2ncnc3c2cnn3-c2ccccc2)CC1,.,0.0,i,0.897,2.6,89.6,.
Cc1ccc(C(=O)COC(=O)c2ccccc2N2C(=O)C3C4CCC(C4)C3C2=O)cc1C (stereo not given),28.6,-1.3,i,0.87,-8.8,110.8,117.5
O=C1CN(C(=O)COC(=O)COc2ccc3c(c2)CCC3)c2ccccc2N1,-33.3,-2.2,i,0.81,-16.7,112.1,87.1
Cc1cnc(C(=O)N2CCN(S(=O)(=O)c3ccc4ccccc4c3)CC2)cn1,.,-0.9,i,0.99,-3.8,96.2,.
Cc1ccc(CNC(=O)c2ccc(N3CCCC3=O)cc2)cc1,13.3,-1.7,i,1.12,-10.0,97.5,98.4
COc1cccc(-n2c(C)nn(C)c2=O)c1,.,-3.4,i,0.93,3.0,94.6,.
CCOC(=O)c1cc(-c2ccccc2)sc1NC(=O)CC(C)C,2.8,-1.2,i,1.08,7.5,110.7,92.3
O=C1CC(c2ccccc2)CC(O)=C1C=Nc1ccccc1 (stereo not given),.,.,i,0.89,-3.6,106.0,.
O=C(CNC(=O)c1ccccc1F)OC(C(=O)Nc1cc(C(F)(F)F)ccc1Cl)c1ccccc1 (stereo not given),10.8,-1.7,i,0.8,4.6,99.2,123.9
COc1ccccc1NC1=NCC(=O)N1Cc1ccccc1,-115.4,-2.0,i,0.95,5.1,99.6,157.5
Cc1cc(NC(=O)c2cc3ncc(Br)cn3n2)no1,0.0,0.3,i,0.94,1.3,104.1,96.5
CC(=O)Nc1ccc(NC(=O)/C=C/c2ccc3c(c2)OCO3)cc1,-14.3,.,i,0.97,-2.2,101.8,92.7
COc1ccc(Br)c(C(=O)NC2CCCC2)c1,-64.3,.,.,.,-5.7,107.8,20.3
COCCNc1nc(-c2ccc(OC)cc2)c(-c2ccc(OC)cc2)s1,25.0,.,i,0.87,-12.3,103.0,157.6
Cc1cc(C(=O)N/N=C/c2ccc(-c3cccc(Br)c3)o2)n[nH]1,.,.,i,0.84,.,109.6,.
COc1ccc(-c2cc(C(F)(F)F)n3ncc(C(=O)NCC4CCCO4)c3n2)cc1 (stereo not given),-40.0,1.1,i,0.82,-0.5,27.7,140.3
O=C(NNc1cccc(Cl)n1)Nc1cccc(Cl)c1,50.7,-1.5,i,1,-6.3,64.7,61.0
Cc1ccc(NC(=O)Nc2ccno2)cc1,.,.,i,1.17,.,97.8,.
COc1cc2cc(CN(Cc3nnnn3Cc3ccccc3)CC3CCCO3)c(=O)[nH]c2cc1OC (stereo not given),.,-0.7,i,0.94,1.0,101.6,.
CCOC(=O)Cc1csc(NC(=O)Nc2ccc(Cl)cc2)n1,.,.,i,0.96,.,102.3,.
CCCC(c1nnnn1Cc1cccs1)N1CCN(c2ccc(OC)cc2)CC1 (stereo not given),9.7,-1.5,i,0.97,-3.4,107.3,85.6
Cc1c(CC(=O)Nc2ccc(Cl)cc2)sc2ccc(Cl)cc12,.,.,i,0.88,.,95.7,.
CC1(C)CC(=O)C/C(=N/NC(=O)CCCOc2ccc(Cl)cc2Cl)C1,.,-1.2,i,1.05,-1.7,98.7,.

# Following part.
canonical_smiles,Insulin prom inh,GALR2 agonist,HSV replic up,HSV replic up primary fold,PKD1 inh,RGS16-Gao HTS,Insulin prom inh cell count
Clc1ccc(OCc2nc(-c3ccc(Br)o3)no2)cc1,.,-3.0,i,0.91,-6.0,97.4,.
O=C(O)c1ccccc1Cc1nc2cc(Cl)ccc2c(=O)[nH]1,.,.,i,0.95,-5.7,98.6,.
COc1cc(Br)cc(/C=N/c2ncn[nH]2)c1O,.,-2.4,i,1.13,-14.3,103.7,.
c1ccc(CN2CCC(Nc3nc(-c4ccccc4)nc4ccccc34)CC2)cc1,53.9,-0.7,i,0.66,-3.3,101.3,106.9
Cn1cc(C(=O)N/N=C/C(Br)=C\c2ccccc2)ccc1=O,-14.3,-1.7,i,0.79,0.4,101.1,93.7
O=C(COC(=O)c1ccccn1)NCc1ccccc1,.,-2.9,i,1.07,1.9,104.7,.
O=C(c1ccc(Oc2cc(Cl)cc(Cl)c2)o1)N1CCCCC1,.,.,i,1.01,.,101.5,.
Nc1nc2n(c1C(=O)c1ccccc1)CCC2,51.4,-3.4,i,1.11,-3.2,99.4,145.6
CCCOc1ccc(C2CC(=O)NC2=O)cc1 (stereo not given),.,.,i,0.89,5.8,106.6,.
Cc1nc(-c2ccccc2)sc1C1(C)CC(c2cccc([N+](=O)[O-])c2)=NO1 (stereo not given),.,.,i,0.86,.,98.7,.

# Some entries already given, reduced to RGS16-Gao HTS and HSV replic up primary fold.
SMILES	RGS16-Gao HTS	HSV replic up primary fold
O=C(O)c1ccccc1Cc1nc2cc(Cl)ccc2c(=O)[nH]1	98.6	0.95
COc1cc(Br)cc(/C=N/c2ncn[nH]2)c1O	103.7	1.13
c1ccc(CN2CCC(Nc3nc(-c4ccccc4)nc4ccccc34)CC2)cc1	101.3	0.66

# Further compounds:
canonical_smiles,Insulin prom inh,GALR2 agonist,HSV replic up,HSV replic up primary fold,PKD1 inh,RGS16-Gao HTS,Insulin prom inh cell count
COc1ccc(CSc2n[nH]c(C)n2)cc1Br,.,-0.3,i,1.13,7.2,98.1,.
CCOc1ccc(/C(O)=C2\C(=O)C(=O)N(c3ccc(OC)cc3)C2c2ccccc2[N+](=O)[O-])cc1 (stereo not given),.,.,i,0.9,.,81.4,.
COc1ccc(N2C(=O)CC(N3CCC(O)(c4cccc(C(F)(F)F)c4)CC3)C2=O)cc1 (stereo not given),.,-1.6,i,0.98,6.8,102.5,.
COC(=O)c1c(NC(=O)C2CC2)sc(C(=O)Nc2ccccc2)c1C,.,.,i,0.68,2.9,106.5,.
O=C(/C=C/c1ccoc1)c1ccccc1O,-35.1,-0.2,i,0.83,-6.1,104.9,147.4
CC1(c2nnc(-c3ccc(Cl)cc3)o2)CC(c2ccc(Cl)cc2)=NO1 (stereo not given),.,.,i,0.895,.,99.0,.
CNC(=O)COC(=O)[C@@H](Nc1ccc(S(=O)(=O)N2CCOCC2)cc1[N+](=O)[O-])C(C)C,38.5,0.8,i,1.1,-4.2,120.6,147.5
Cc1ccc(C2CC(=O)NC3=C2C(=O)CCC3)cc1Br (stereo not given),-30.3,0.2,i,1,-8.9,96.8,104.1
Cc1ccccc1OCCSc1nc2ncnc(N)c2[nH]1,.,.,i,0.96,-10.7,105.5,.
CC(=O)c1c(N2CCN(C(=O)c3ccco3)CC2)nc(=S)n(-c2ccccc2)c1C,37.5,-1.8,i,0.88,-2.9,100.5,124.5
O=C(COc1ccc(Br)cc1)N1CCN(c2ccccc2)CC1,-56.5,-2.3,i,0.82,-1.9,95.4,84.7
CN=C(Cc1ccccc1)C1=C(O)CC(C)(C)CC1=O,.,.,i,0.94,5.9,106.4,.
Cc1nn(-c2ccccc2)c(Cl)c1/C=N/NC(=O)CNC(=O)c1ccccc1Cl,.,0.6,i,0.84,-3.5,98.1,.
CC(C)N(C)C(=O)c1ccc(OC2CCN(CCc3ccccc3)CC2)cc1,.,.,i,0.99,-7.9,103.7,.
COc1ccc(C(=O)O)cc1S(=O)(=O)N(C)CCc1cccnc1,-9.7,-3.2,i,0.98,-0.5,99.0,109.8
COc1ccc([N+](=O)[O-])cc1NC(=O)CSc1nc(C)c(C)c(C)n1,3.5,0.0,i,0.94,2.8,151.3,137.9
Cc1ccc(N2CCN(C3=NC(=O)C(Cc4ccccc4)S3)CC2)cc1 (stereo not given),.,-1.4,i,0.96,-1.7,101.8,.
NS(=O)(=O)c1ccc(NC(=O)CSc2ncn[nH]2)cc1,0.0,.,i,0.94,5.2,94.9,78.1
COc1ccc(CNc2nc(-c3ccccc3)nn2C(=O)c2cccs2)cc1,7.1,-2.0,i,0.99,-0.4,103.0,124.3
CCn1c(-c2cc3c(C(F)(F)F)nn(C)c3s2)n[nH]c1=S,25.8,-0.4,i,0.82,-5.8,90.0,114.0
Cc1ccccc1OCC(=O)NCc1ccccc1,0.0,.,i,0.99,-4.6,101.8,59.1
CCCCCn1c(CN2CCN(C(=O)OCC)CC2)nc2c1c(=O)[nH]c(=O)n2C,40.0,-0.8,i,0.86,-0.6,101.7,140.9
COc1cccc(S(=O)(=O)Nc2cccc(C(=O)N3CCOCC3)c2)c1,-465.7,-2.0,i,0.91,-1.1,79.8,33.1
